Bioassay records: PubChem BioAssay, ICCB-Longwood Screening Facility, Harvard Medical School
GIV-Gai inh – GIV-Galpha-i interaction inhibition. percent of control (FP), % (no concentration beside the values). Galpha-i3/FITC-GIV peptide fluorescence polarization, 90 min; stronger effect = lower value; scaled: aluminum fluoride 0%, vehicle 100%. actives 0.42% (n = 210,000). P08753;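 active = replicate mean at 85% of control or lower, very high polarization wells dropped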;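 also: wells of about 15 µL received 100 nL stock; the first replicate is given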
Target sequence (P08753 whole entry, looked up): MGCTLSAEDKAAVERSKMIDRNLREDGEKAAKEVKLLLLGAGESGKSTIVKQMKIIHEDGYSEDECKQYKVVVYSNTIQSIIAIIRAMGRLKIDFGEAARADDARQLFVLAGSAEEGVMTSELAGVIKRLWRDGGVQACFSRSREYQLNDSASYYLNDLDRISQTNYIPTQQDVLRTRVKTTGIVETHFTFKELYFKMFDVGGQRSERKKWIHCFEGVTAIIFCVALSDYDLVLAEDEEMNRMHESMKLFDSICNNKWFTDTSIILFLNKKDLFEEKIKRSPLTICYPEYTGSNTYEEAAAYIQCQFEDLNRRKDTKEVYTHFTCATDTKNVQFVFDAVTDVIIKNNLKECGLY
Numbers without * were called inactive.

Compound | GIV-Gai inh
O=C(CSc1nnc2c3sc(N4CCCC4)nc3ncn12)NC1CCCCC1 | 119.3
COC(=O)c1c(C)oc2ccc(N(C(=O)c3ccc(C)cc3)S(=O)(=O)c3ccc(Cl)c([N+](=O)[O-])c3)cc12 | 137.0
CSc1nc2ccccc2n1CC(=O)NC(c1ccccc1)c1ccccc1 | 108.1
Cc1cc(C)c(C#N)c(SCCS(=O)(=O)c2nc3ccccc3s2)n1 | 101.4
Cc1ccc(-c2nc3c4ccccc4n(CC(=O)c4ccc(C)cc4C)c(=O)n3n2)cc1 | 102.5
COc1ccccc1-c1cc(C(=O)N2CCCC2c2c(C)noc2C)no1 (configuration not stated) | 103.6
COc1cc(C(=O)Nc2ccc(-c3nc4cc(Cl)cc(Cl)c4o3)cc2)cc(OC)c1OC | 102.0
CN(Cc1c(O)ccc2c3c(c(=O)oc12)CCC3)C1CCCCC1 | 104.0
CCOc1ccc(S(=O)(=O)N2CCC(c3noc(-c4ccccc4)n3)CC2)cc1 | 102.9
O=C(CCc1nc(CSc2n[nH]c(-c3ccccc3)n2)no1)Nc1ccccc1 | 99.1
Cc1nc(N2CCN(c3ccccn3)CC2)c2c(C)c(C(=O)Nc3ccc4c(c3)OCCO4)sc2n1 | 104.2
Cc1ccc2c(c1)Oc1ccc(S(=O)(=O)N3CCCCC3C)cc1C(=O)N2 (configuration not stated) | 106.4
CCc1ccc(NC(=O)c2ccc(-c3nccc(Oc4ccccc4OC)n3)cc2)cc1 | 102.1
CC1CCCCN1S(=O)(=O)c1cc(-c2nnc(C3CC3)o2)co1 (configuration not stated) | 101.7
CC(C)C(=O)C1=Cc2cc([N+](=O)[O-])ccc2OC1N1CCOCC1 (configuration not stated) | 122.6
Cc1ccccc1-c1cc2n(C)c(C)c(CCC(=O)N3CCCC3)c(=O)n2n1 | 112.1
O=C1/C(=C/c2ccc(-c3ccc(Br)cc3)o2)C=C(c2ccccc2)N1c1cccc(O)c1 | 169.7
COc1ccc(N2C(=O)c3ccc(Oc4ccccc4OC)cc3C2=O)cc1 | 111.7
O=C1C2C3c4ccccc4C(C=Nc4cccc(Cl)c4Cl)(c4ccccc43)C2C(=O)N1c1ccccc1[N+](=O)[O-] (configuration not stated) | 103.0
CCc1cc(C2CCCN2S(=O)(=O)c2ccc(C(C)(C)C)cc2)on1 (configuration not stated) | 108.1
CCC(C)NC(=O)CSc1nc2c(sc(=S)n2Cc2ccco2)c(=O)n1-c1ccccc1 (configuration not stated) | 107.0
CCOC(=O)c1c(NC(=O)CSc2nnc(CNC(=O)c3cccs3)n2-c2cccc(C)c2)sc2c1CCC2 | 107.3
COc1ccccc1N1C(=O)NC(=O)/C(=C\c2cc(Br)c(O)c(OC)c2)C1=O | 114.2
CCCCCCCCOc1ccc(C(=O)Oc2ccc(C#N)cc2)cc1 | 121.4
CCOC(=O)N1CCC2(CC1)N=C(c1ccc(C)c(C)c1)CC(c1ccccc1O)N2 (configuration not stated) | 98.9
CCOc1cccc(CN2C(=O)c3ccccc3CC2(C)C(=O)NCc2ccccc2)c1 (configuration not stated) | 117.4
O=C(NCCN1CCc2ccccc2C1)c1cn2c(n1)CSCC2 | 99.1
COc1ccc(-c2c(C)nn3c2NC(=O)CCC3=O)cc1S(=O)(=O)NCC1CCCO1 (configuration not stated) | 101.1
COC(=O)c1ccc(CN2CCCC2c2cc(C(C)C)on2)cc1 (configuration not stated) | 100.9
Cc1ccc(C2/C(=C(\O)c3ccc(Cl)cc3)C(=O)C(=O)N2c2nnc(C)s2)cc1 (configuration not stated) | 107.3
O=C1NCCN1Cc1ccc(Cl)cc1 | 97.1
Cn1c(SCC(=O)O)nnc1-c1ccc2c(c1)OCCCO2 | 105.7
O=S(=O)(c1cccc(F)c1)N1CCN(c2ncnc3c2nnn3-c2ccccc2)CC1 | 100.5
Cc1ccc2c(c1)C1CN(C)CCC1N2C(=S)Nc1ccccc1F (configuration not stated) | 107.2
COC(=O)c1cc(C)nc2c1c(=O)n(Cc1ccncc1)c(=O)n2-c1ccccc1OC | 105.3
CCN1C(=O)COc2ccc(-c3noc(C4CCCN(S(=O)(=O)c5ccc(C)cc5)C4)n3)cc21 (configuration not stated) | 103.0
O=C(c1cn2ccncc2n1)N1CCOCC1 | 103.8
Cc1cc(-c2csc(S(=O)(=O)Nc3cccc(Br)c3)c2)on1 | 104.8
Cc1nn(CC(=O)N2CCCC2)c(C)c1S(=O)(=O)N1CCCC(C(=O)Nc2cccc(F)c2)C1 (configuration not stated) | 105.0
O=C(NCc1nc(-c2ccc3c(c2)Sc2ccccc2C(=O)N3C2CC2)no1)c1ccccc1 | 99.0
O=C(Nc1ccc(F)cc1F)c1nnc(C2CCN(S(=O)(=O)c3ccc(F)cc3)CC2)s1 | 99.4
COc1ccc(NS(=O)(=O)c2ccc3c(c2)C(C)(C)CN3CC(=O)N2CCCC2)c(OC)c1 | 112.3
COc1ccc(Br)cc1S(=O)(=O)N(Cc1ccco1)CC1CCCO1 (configuration not stated) | 104.2
CCC(C)(C)NC(=O)C1CCCN(S(=O)(=O)c2cc(-c3noc(C4CCC4)n3)cs2)C1 (configuration not stated) | 102.5
Cc1ccc(-c2nc3c4ccccc4n(CC(=O)Nc4cc(C)cc(C)c4)c(=O)n3n2)cc1 | 96.4
O=C(NC1CCCC1)c1ccc2c(c1)[nH]c(=S)n1c3ccccc3nc21 | 114.2
COc1ccc2oc(-c3noc(-c4ccoc4)n3)c(C)c2c1 | 127.9
CC(=O)OC1C(C)OC(Sc2ccccn2)C(OC(C)=O)C1OC(C)=O (configuration not stated) | 109.7
CCOC(=O)C1=C(C(=O)OCC)SC(=C2C(=S)C(C)(C)N(C(=O)c3ccccc3Cl)c3ccccc32)S1 | 107.3
CC(C)c1[nH]nc2c1C(c1cccc(OC(=O)N3CCOCC3)c1)C(C#N)=C(N)O2 (configuration not stated) | 111.2
CSc1nc2c(c(=O)n1-c1ccccc1C)C1(CCCC1)Cc1ccccc1-2 | 103.4
NC(=O)CSc1nnc2c3ccccc3nc(-c3ccc(F)cc3)n12 | 109.8
O=C(CCn1c(N2CCCC2)nc2ccsc2c1=O)N1CCN(c2ccccn2)CC1 | 105.9
COc1ccc(N2CCN(c3nccc4ccc(C(=O)NCc5ccccc5)cc34)CC2)cc1 | 101.5
O=C(NCc1ccc(Br)cc1)c1ccc(-c2ccc(F)cc2)nc1 | 114.5
Cc1sc(-c2cc(C(F)(F)F)on2)cc1S(=O)(=O)NCc1ccc(F)cc1 | 101.9

(continued)
Compound | GIV-Gai inh
Cc1c(Cl)cccc1NC(=O)CSC1=C(C#N)C(c2ccc3c(c2)OCO3)C2=C(CCCC2=O)N1 (configuration not stated) | 105.8
Cc1cc(Sc2ccc(NC(=O)Nc3ccc(C)c(F)c3)cc2)n2ncnc2n1 | 104.9
Cn1c(SCC(=O)Nc2ccc3[nH]c(=O)[nH]c3c2)nnc1-c1cc2ccccc2o1 | 108.2
Cc1nc(NC(=O)C2CCC2)n[nH]1 | 100.9
Cc1c(C(c2ccc(C(C)C)cc2)c2c(C)n(C)n(-c3ccccc3)c2=O)c(=O)n(-c2ccccc2)n1C | 106.0
Cc1csc(-c2cc(S(=O)(=O)N3CCOCC3)cn2CC(=O)N2CCCC2)n1 | 104.5
O=C(CN1C(=O)CC(c2cccc(Cl)c2)=Nc2cccnc21)Nc1ccc2c(c1)CCC2 | 106.9
Fc1ccccc1-c1nc(N2CCC3(CC2)OCCO3)c2ccccc2n1 | 102.9
Cc1ccc(-c2nn3c(=O)cc(CN4CCN(C(=O)Nc5cc(F)ccc5F)CC4)nc3s2)cc1 | 97.7
CC(C)CNC(=O)c1ccc(-c2nc3ccccc3n(CC(C)C)c2=O)cc1 | 99.3
COCC(=O)N1Cc2c(sc3c2CCCC3)-n2cccc2C1c1cccc(C)c1 (configuration not stated) | 108.5
CCOC(=O)C1=C(c2ccccc2)OC(N)=C(C#N)C1c1ccc(F)c(Br)c1 (configuration not stated) | 107.9
Cc1csc(-c2cc(S(=O)(=O)N3CC=C(c4ccccc4)CC3)c(C)s2)n1 | 141.5
O=C(NCc1ccccn1)c1nc(N2CCOCC2)c2oc3ccccc3c2n1 | 107.8
O=C(c1cccc(N2C(=O)C3C4C=CC(C4)C3C2=O)c1)N1CCN(c2ccc(F)cc2)CC1 (configuration not stated) | 104.6
CSc1nnc(NC(=O)CSc2nn3c(SCC(=O)Nc4nnc(SC)s4)nnc3s2)s1 | 108.5
Cc1cc(F)ccc1NC(=O)CCc1nc(CSc2nc3ccccc3s2)no1 | 105.1
COc1ccccc1CNS(=O)(=O)c1ccc(F)c(C(=O)Nc2ccc(Br)cc2F)c1 | 113.2
O=C(c1nnc(-c2csc(S(=O)(=O)N3CCCC3)c2)o1)N1CCCC1 | 103.5
Cc1cc(=O)oc2c(C)c3oc(C(O)c4ccccc4)c(-c4ccccc4)c3cc12 (configuration not stated) | 101.9
CCc1ccc(C2=C(C)C(N3CCCN(C(=O)C(C)(C)C)CC3)=NS2(=O)=O)cc1 | 96.4
CC(C)NCC(O)Cn1c2ccc(Br)cc2c2cc(Br)ccc21 (configuration not stated) | 109.6
CC(C)c1ccc(S(=O)(=O)Nc2ccc(-c3nnc(-c4ccccc4)o3)cc2)cc1 | 108.0
Cc1nc(-c2cccc(-c3noc(-c4ccc5c(c4)OCO5)n3)c2)cs1 | 99.0

Reprinted from the part before: six compounds; new compounds follow.
Compound | GIV-Gai inh
O=C(c1nnc(-c2csc(S(=O)(=O)N3CCCC3)c2)o1)N1CCCC1 | 103.5
Cc1cc(=O)oc2c(C)c3oc(C(O)c4ccccc4)c(-c4ccccc4)c3cc12 (configuration not stated) | 101.9
CCc1ccc(C2=C(C)C(N3CCCN(C(=O)C(C)(C)C)CC3)=NS2(=O)=O)cc1 | 96.4
CC(C)NCC(O)Cn1c2ccc(Br)cc2c2cc(Br)ccc21 (configuration not stated) | 109.6
CC(C)c1ccc(S(=O)(=O)Nc2ccc(-c3nnc(-c4ccccc4)o3)cc2)cc1 | 108.0
Cc1nc(-c2cccc(-c3noc(-c4ccc5c(c4)OCO5)n3)c2)cs1 | 99.0
O=C(c1ccc2ccnc(N3CCN(c4ccc(F)cc4)CC3)c2c1)N1CCCCC1 | 105.9
O=C1c2ccccc2C(=O)N1C1C(=O)N(c2ccc(Br)cc2)C1c1ccc(F)cc1 (configuration not stated) | 106.3
O=c1[nH]cnc2c1nc(SCc1cc(=O)n3ccccc3n1)n2-c1ccccc1 | 104.6
Fc1ccc(-c2noc(Cn3ccnc3)n2)cc1Br | 109.5
CC(C)c1cc(C2CCCN2C(=O)Nc2ccc3c(c2)OCCO3)no1 (configuration not stated) | 107.7
Cc1nn(CC(=O)NCCc2c(C)[nH]c3ccc(OCc4ccccc4)cc23)c(C)c1Cl | 101.3
CCn1cc(CN2CCC(C(=O)NC(C)(C)C)CC2)c2cc(OC)ccc21 | 105.3
CCCS(=O)(=O)N1CCCC(c2n[nH]c(=O)n2-c2ccccc2)C1 (configuration not stated) | 98.5
O=C(NC1CCCC1)c1ccn[nH]1 | 103.5
Cc1cc(NCCN(C)C)n2c(nc3ccccc32)c1C#N | 107.1
Cc1nc(SCC2=C(C(=O)OC(C)C)C(c3ccccc3Br)C(C#N)=C(N)O2)c(C#N)c(C)c1C (configuration not stated) | 113.6
CCCCOc1cccc(NC(=O)CSc2nc(C)cc(-c3cccnc3)c2C#N)c1 | 111.0
CCCCn1c(SCC(=O)NCC2CCCO2)nc2c(sc3ccccc32)c1=O (configuration not stated) | 107.1
O=C(C1CCN(c2nc3ccc(Cl)cc3[nH]2)CC1)N1CCN(C2CCCCC2)CC1 | 106.6
Clc1ccc(C2Nc3ccc(Cl)cc3C(c3ccccc3)O2)cc1 (configuration not stated) | 107.3
Cc1ccc(-c2noc(C3CCCN3S(=O)(=O)c3ccc4c(c3)CCCC4)n2)cc1 (configuration not stated) | 103.6
CCc1nc(SCC(=O)N2CCOCC2)c2c(=O)n(C)c(=O)n(C)c2n1 | 96.7
CCCCN(C)C(=O)CSc1nc(NCc2ccc3c(c2)OCO3)c2ccccc2n1 | 103.6
O=C1C2C(c3ccccc3)OC3(C(=O)c4ccccc4C3=O)C2C(=O)N1CCc1ccc(F)cc1 (configuration not stated) | 111.3
COc1cc(Br)c(C2C(C(=O)OCCc3ccccc3)=C(C)NC3=C2C(=O)CCC3)cc1OC (configuration not stated) | 102.6
Cc1nc(-c2cc(S(=O)(=O)NCC(C)c3ccccc3)c(C)s2)sc1C (configuration not stated) | 98.2
CC1CCCN(CC2CCN(S(=O)(=O)c3ccc4c(c3)CCC4)CC2)C1 (configuration not stated) | 104.0
CC(C)(NC(=O)C1CCCO1)c1nc2c(c(C(N)=O)n1)OCO2 (configuration not stated) | 106.4
CCCC(=O)C1=C(c2ccc(Br)cc2)N(C(=O)CCC)n2cnnc2S1 | 101.3
O=C(c1ccc(N2CC3CC(C2)c2cccc(=O)n2C3)c(NS(=O)(=O)c2ccc(Cl)cc2)c1)N1CCCCC1 (configuration not stated) | 105.5
COc1ccc(CN2CCCC2c2c(C)noc2C)cc1OC (configuration not stated) | 102.0
CC1CCCC(NC(=O)c2ccc3c(c2)[nH]c(=S)n2c4ccccc4nc32)C1C (configuration not stated) | 108.0
COc1cccc(-c2nc3sc4c(c3c(=O)n2CC(=O)Nc2ccc(N(C)C)cc2)CCCC4)c1 | 110.9
COc1ccc(NC(=O)CSc2nc3ccccc3c(=O)n2CCC(=O)NCc2ccc(F)cc2)c(OC)c1 | 102.9
Cc1ccccc1-c1nn2c(=O)cc(CN3CCN(C(=O)c4ccc5c(c4)OCO5)CC3)nc2s1 | 96.2
CC1=C(C(=O)Nc2cccc(Cl)c2)C(c2ccc(C(C)C)cc2)NC(=O)N1 (configuration not stated) | 99.3
CN(C)c1nc2ncn3c(=O)n(CC(=O)Nc4cccc(Cl)c4)nc3c2s1 | 104.4
Cc1ccc(-c2noc3ncnc(N(CCN(C)C)Cc4ccccc4)c23)cc1 | 101.7
O=C(Cn1nc(C(=O)Nc2ccccc2)ccc1=O)NC1CCCCC1 | 101.3
N#CCCn1c2ccccc2c2nc3ccccc3nc21 | 115.1

A portion of the library. The share of hits here may be higher or lower than overall.
